Screening results as filed in PubChem BioAssay.
RanGTP-Imp inh: inhibitors of RanGTP-importin-beta interaction, primary screen, biochemical, FRET, CFP-Ran, YFP-importin-beta, homogeneous; AID 2216; inhibition, % (no concentration beside the values); cell-free CFP-Ran/YFP-importin-beta FRET ratio; 1.1% of 300,000 active;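 active means most replicates above 15%; inconclusive means exactly half above 15%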;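 further: 0% = DMSO wells and 100% = Ran loaded with GDP instead of GTP; wells of about 40 µL received 100 nL stock; the first replicate is given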
Beta apoptosis: blocks beta cell apoptosis. protection from apoptosis, % (test concentration not listed). AID 435005. INS-1E cytokine-induced death, ATP luminescence, 48 h; percent of positive-control rescue, neutral wells zero. 0.8% of 300,000 active;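 active means all replicates at 75% or more, or half of them and the mean; inconclusive means half reach 75% but not the mean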;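 further: 0% = cytokine-treated negative control wells and 100% = positive control rescue; higher means more ATP so stronger rescue from cytokine killing; wells of about 40 µL received 100 nL stock; the first replicate is given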
Bfl-1 A1 inh: inhibitors of the anti-apoptotic protein A1, read as caspase activation; MEF A1-2A-BIM cells, Caspase-Glo 3/7 luminescence, 3 h; percent of clofoctol response, vehicle zero; caspase activation, % (concentration not given with the values); 0.066% of 330,000 active; AID 2462;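 active means over half of replicate activation scores above 10%, or exactly half above 10 with the replicate mean above 10; inconclusive means replicate mean below 10 yet half the replicates above 10; inactive means over half of replicates below 10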;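 further: wells of about 30 µL received 50 nL stock; many hits fall short of the cut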
UCH37 DUB inh: blocks the human deubiquitinase UCH37; purified proteasome/UCH37, Ub-AMC cleavage fluorescence; 0.33% of 330,000 active; AID 588478; Q9Y5K5; inhibition, % (concentration not given with the values);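 active means mean of two replicates above 20%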;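 further: 0% = compound-free wells with enzyme and 100% = wells lacking proteasome; stock transfer was 100 nL into about 20 µL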
Target sequence (Q9Y5K5 whole entry, looked up): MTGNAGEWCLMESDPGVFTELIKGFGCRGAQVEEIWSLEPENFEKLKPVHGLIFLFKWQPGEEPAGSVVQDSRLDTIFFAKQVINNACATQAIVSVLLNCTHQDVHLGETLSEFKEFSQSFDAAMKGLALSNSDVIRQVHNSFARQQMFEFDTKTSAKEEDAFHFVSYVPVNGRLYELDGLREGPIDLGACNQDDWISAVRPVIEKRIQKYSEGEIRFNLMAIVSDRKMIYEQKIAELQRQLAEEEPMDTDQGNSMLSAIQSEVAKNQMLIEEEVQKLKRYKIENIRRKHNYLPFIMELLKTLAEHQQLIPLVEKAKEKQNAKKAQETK
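System: Proteasome-associated human UCH37 deubiquitinase; Input: 0.15 nM proteasome in added enzyme buffer; Also added: Ub-AMC substrate from 1 µM stock; Incubation: 30 min compound-proteasome preincubation then 25 min substrate reaction, room temperature; Detection: fluorescence, ex 355 nm, em 460 nm; Read-out: % inhibition of Ub-AMC cleavage fluorescence; Benchmarks: no-proteasome and no-compound wells.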
Calb FLC: affects C. albicans growth with fluconazole | AID 1979 | 0.57% of 300,000 active | growth inhibition, % (no concentration beside the values) | C. albicans CaCi-2 (fluconazole-resistant clinical isolate) + fluconazole, Alamar Blue growth, 48 h;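 active means most replicates above 75%; inconclusive means exactly half above 75%; inactive means most below 75%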;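 further: all wells also contain fluconazole at 8 µg/ml as a sub-toxic cotreatment; 0% = median of DMSO wells and 100% = median of geldanamycin control wells; wells of about 8 µL received 7.5 nL stock; the first replicate is given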
T cruzi inh: T. cruzi replication inhibition; 1.4% of 300,000 active; inhibition, % (concentration not given with the values); T. cruzi beta-gal in NIH3T3, luminescence, 90 h; AID 1885;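 active means mean inhibition across valid replicates above about 55%, limit read from the data; inconclusive means mean below that limit but half or more replicates reach it; inactive means mean below it, under half of replicates reach it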;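 further: signal also drops with host cell toxicity which is not excluded here; 0% = plate median of DMSO wells and 100% = zero luminescence signal; higher percent means less beta-gal luminescence so fewer parasites; stock transfer was 50 nL into about 50 µL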
B2AR ag: activates human beta-2 adrenergic receptor causing internalization; P07550; Am2.2-beta2AR cells, FAP receptor internalization, flow cytometry; reference of the scale not given here; response, % (concentration not given with the values); 0.43% of 340,000 active; AID 504454;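 active means response above a set limit, near 3 SD of response in nonfluorescent compounds, cut at about 42% in these data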;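 further: stock transfer was 100 nL into about 11 µL; a reference agonist was the positive control; negative values mostly stem from fluorescent compounds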
Target sequence (P07550 whole entry, looked up): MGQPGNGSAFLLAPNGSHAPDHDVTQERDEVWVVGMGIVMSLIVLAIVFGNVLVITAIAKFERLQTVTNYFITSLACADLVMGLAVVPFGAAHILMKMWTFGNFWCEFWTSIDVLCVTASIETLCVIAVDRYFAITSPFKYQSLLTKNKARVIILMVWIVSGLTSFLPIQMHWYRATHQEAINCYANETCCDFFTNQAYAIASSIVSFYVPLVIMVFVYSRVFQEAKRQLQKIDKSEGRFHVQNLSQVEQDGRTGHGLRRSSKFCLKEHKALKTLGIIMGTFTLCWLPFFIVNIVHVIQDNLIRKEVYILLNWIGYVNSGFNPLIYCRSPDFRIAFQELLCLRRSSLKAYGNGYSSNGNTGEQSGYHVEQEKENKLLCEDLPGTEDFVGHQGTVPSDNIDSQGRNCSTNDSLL
LANA-H2B inh: blocks KSHV LANA binding to histone H2A/H2B; cell-free LANA-H2A/H2B peptide, fluorescence polarization; inhibition, % (no concentration beside the values); 0.6% of 320,000 active; in the data active means inhibition mostly above about 10%, no sharp cut-off; inactive means mostly below about 6.7%;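 further: stock transfer was 7.5 nL into about 10 µL; 0% = median of vehicle wells and 100% = median of positive control wells; one replicate is shown; the record names a cut of 25% in any replicate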
* hit, by the source's call; i = inactive; ? = inconclusive; nt = not tested or not shown.

Under each structure: RanGTP-Imp inh	Beta apoptosis	Bfl-1 A1 inh	UCH37 DUB inh	Calb FLC	T cruzi inh	B2AR ag	LANA-H2B inh
1. CCOCC(O)CNC(=O)c1ccc(OC2CCN(C(=O)c3cccnc3)CC2)cc1 (stereo unspecified)
  2.4	-2	-0.8	-1.7	-1	-6	4	5.5
2. COCCN(C(=O)CSc1nnc(C)n1-c1ccccc1)c1c(N)n(Cc2ccccc2)c(=O)[nH]c1=O
  -2.3	2	0.0	0.0	-4	-11	11	2.8
3. O=C(NCCN1CCOCC1)c1c(F)c(F)c(F)c(F)c1F
  -0.2	-5	0.1	4.0	-4	4	-7	-2.9
4. Cc1ccc(NC(=O)c2ccc(Cn3cc(Br)cn3)o2)cc1
  -1.2	nt	-0.4	3.2	14	-3	4	-1.9
5. CC(=O)Nc1cccc(NC(=O)C2CC3CCC2C3)c1 (stereo unspecified)
  -0.6	2	0.2	-0.2	7	-12	-3	-4.4
6. O=C(Nc1sc2c(c1C(=O)NCCO)CCCC2)c1ccco1
  -1.2	nt	-0.8	0.6	12	2	-12	-0.3
7. O=C(CC1C(=O)NCCN1Cc1ccccc1)NCCC1=CCCCC1 (stereo unspecified)
  0.2	-6	-1.1	0.9	-24	0	0	-0.3
8. Cc1cc(NC(=O)c2ccc(NC(=O)C3CC3)cc2)no1
  -0.5	nt	-0.3	3.7	-9	-5	-10	1.6
9. CCN(CC(=O)Nc1cc(S(=O)(=O)N2CCOCC2)ccc1C)Cc1ccccc1
  -2.5	3	0.5	-1.3	8	8	4	-0.4
10. COC(=O)c1ccc(OC)c(CN2CCCN(Cc3cc(C)ccc3C)S2(=O)=O)c1
  ?	4	-0.6	6.1	1	69*	10	4.7
11. CCOc1ccc(-n2c(C)c(C(C)=O)c(C(C)=O)c2C)cc1
  -0.8	-6	0.8	-3.3	18	-2	3	1.1
12. O=C(COc1ccccc1[N+](=O)[O-])N/N=C/c1cccc(OC(=O)c2ccc3c(c2)OCO3)c1
  ?	-2	-0.8	nt	-7	-24	-9	-4.4
13. CC(=O)Nc1nc(C)c(-c2csc(Nc3ccc(S(N)(=O)=O)cc3)n2)s1
  3.1	-15	-0.4	-96	1	0	-12	3.3
14. S=C(Nc1ccc(CN2CCCCC2)cc1)Nc1cccc(Cl)c1Cl
  2.3	1	0.0	4.3	-6	3	5	0.7
15. Cc1nc(NC(=O)C2CC3CCCC(C2)C3=O)sc1C (stereo unspecified)
  2.6	2	-0.9	-1.3	-12	-3	7	3.3
16. COc1ccc(NC2=C(C)C(=O)CC2)cc1
  3.1	-9	-0.5	6.7	-6	-15	-5	6.8
17. CC1(C)CC(=O)C2=C(C1)N(CCN1CCOCC1)C1=C(C(=O)CC(C)(C)C1)C2c1ccc(Cl)c([N+](=O)[O-])c1
  3.3	-7	1.1	-1.2	31	44	-1	-4.1
18. CCOC(=O)C1=C(C)N(CCCC(=O)O)C(=O)NC1c1ccccc1OS(=O)(=O)c1ccccc1[N+](=O)[O-] (stereo unspecified)
  5.8	-5	-0.7	2.0	4	-1	1	0.6
19. COc1cc(CNc2ncc(-c3ccc(Br)cc3)n2C)cc(OC)c1OC
  -1.1	-8	-0.4	7.0	-7	-4	10	5.0
20. CCn1nnc2cc(C(=O)Nc3cc(S(C)(=O)=O)ccc3Cl)ccc21
  4.7	nt	0.7	2.1	0	4	-10	4.0
21. Cc1ccc(C(C)C)c(OCCN2CCc3ccccc3C2)c1
  -0.8	-1	-0.1	2.3	-10	36	10	2.1
22. O=C(CCc1nc2ccccc2c(=O)[nH]1)NNC(=O)COc1ccccc1Cl
  -1.1	-5	0.3	2.9	nt	-9	6	0.9
23. CCCc1nn2c(=O)cc(O)nc2s1
  6.4	-3	-0.6	1.6	-3	-11	-6	0.8
24. O=C1C2C3C=CC(CC3)C2C(=O)N1c1ccc(F)cc1 (stereo unspecified)
  1.6	-6	0.3	5.1	6	-12	-7	-1.8
25. Cc1ccn2c(Nc3ccccc3C)c(-c3cccnc3)nc2c1
  0.7	-11	2.5	-17	31	9	-1	-6.5
26. CN(CC(=O)NC1CCN(Cc2ccccc2)CC1)S(=O)(=O)c1ccc(Cl)cc1
  nt	16	-0.1	-0.1	nt	nt	-7	-0.5
27. Cc1cc(O)c(C(=O)Nc2cccc(Cl)c2)c(=O)n1C
  -4.1	-3	-7.1	-4.8	4	3	-19	-0.1
28. Nn1c(SCc2ccc(F)cc2)nnc1-c1cccnc1
  4.2	-4	0.4	3.3	3	-23	2	1.2
29. CCN(CC)CCN1C(=O)c2oc3ccccc3c(=O)c2C1c1ccccc1 (stereo unspecified)
  4.0	-11	-0.8	4.2	6	-14	-7	-0.7
30. Oc1ccccc1/C=N/n1c(COc2ccccc2)n[nH]c1=S
  3.3	-8	-0.1	nt	-10	-11	-17	0.8
31. O=C(COC(=O)c1ccc(S(=O)(=O)N2CCOCC2)cc1)Nc1nc(-c2ccccc2)cs1
  -1.5	-4	0.1	-1.3	33	-3	-5	0.1
32. CCOc1ccc(N(CC(=O)Nc2ccccc2C)S(=O)(=O)c2c(C)noc2C)cc1
  -0.5	nt	0.3	4.5	1	-29	21	-2.6
33. C=CCSc1n[nH]c2nc3c(c(=O)n12)C1(CCCC1)Cc1ccccc1-3
  nt	-6	1.4	-18	nt	nt	-14	1.6
34. CCOC(=O)N1CCN(S(=O)(=O)c2c(C(=O)N3CCCCC3)c(C)n(C)c2C)CC1
  ?	-12	-1.5	-0.1	24	-17	2	10
35. O=C(CN(Cc1ccc(F)cc1)C(=O)CNS(=O)(=O)c1ccc(Cl)cc1)NCC1CCCO1 (stereo unspecified)
  -2.0	-7	0.0	0.4	-4	9	1	3.2
36. O=C(Nc1ccc2c(c1)OCO2)c1ccc(N2C(=O)c3ccccc3C2=O)cc1
  0.1	-9	-0.2	1.3	2	-10	1	4.5
37. O=C(NCc1ccncc1)C(=O)NCC1OCCCN1S(=O)(=O)c1ccccc1 (stereo unspecified)
  -0.8	-9	0.1	3.2	-5	-21	12	1.5
38. Cc1nonc1NC(=O)CSc1nnc(-c2ccoc2C)n1C
  -1.3	2	-0.3	5.5	3	9	-2	2.1
39. Cn1nnnc1NCc1ccc(Cl)cc1
  ?	-2	-0.2	-1.8	-3	-8	7	-1.4
40. S=C(Nc1ccc(Cl)cc1Cl)N1CCN(c2ccccn2)CC1
  -1.0	-7	-0.6	0.4	-25	-11	-1	-0.8
41. O=C1CC(NCc2cccs2)C(=O)N1c1ccc(Cl)cc1 (stereo unspecified)
  0.8	-8	0.5	2.7	-16	-3	-7	-6.8
42. CCNS(=O)(=O)c1ccc2c3c(cccc13)C(=O)N2
  ?	nt	0.2	i	1	-4	-8	-1.1
43. O=C(COC(=O)CSc1ccc(F)cc1)NCc1ccco1
  nt	4	-0.7	2.4	nt	nt	1	3.5
44. N/C(=N\OS(=O)(=O)c1cc(Cl)ccc1Cl)c1ccncc1
  1.2	-5	0.5	-1.3	-5	3	4	7.2
45. O=C(Nc1cc(S(=O)(=O)N2CCCC2)ccc1Cl)c1cc(F)c(F)c(F)c1F
  nt	-6	0.3	-1.5	nt	nt	10	6.1
46. Cn1c(=O)c2c(nc(CN3CCN(CCO)CC3)n2CCc2ccccc2)n(C)c1=O
  0.4	-3	1.6	1.5	-5	-1	-12	-0.1
47. O=C(CCN1C(=O)c2ccccc2C1=O)Nc1ccncc1
  -0.7	-4	0.8	3.9	6	-6	-4	-0.7
48. Cc1ccc(N(CC(=O)N/N=C/c2cccc(Br)c2)S(C)(=O)=O)cc1
  2.8	-5	1.6	nt	-7	15	-4	1.4
49. CCCNC(=O)C1(CC2CC(c3ccccc3)=NO2)CCN(C(=O)C2CCCC2)CC1 (stereo unspecified)
  nt	-1	0.9	5.9	nt	nt	-12	-5.8
50. COc1ccc(CC(=O)NNC(=O)CCc2ccccc2)cc1OC
  0.4	-1	0.2	0.6	-12	-2	-3	3.4
51. CC(=O)Nc1ccc(S(=O)(=O)NCCSCc2ccco2)cc1
  3.5	0	-0.7	0.3	-2	7	0	-0.3
52. CCOC(=O)c1cnc2ccc(C)cc2c1Sc1ccccc1C(=O)OC
  1.8	-7	?	4.4	17	61*	4	-6.3
53. COc1cc(NC(=O)C(=O)NCCN2CCNCC2)c(OC)cc1Cl
  1.9	-3	1.4	5.1	?	7	-1	9.3
54. CCNc1nc(NC(C)CC)nc(ON=C(C)C)n1 (stereo unspecified)
  1.8	-11	0.0	0.5	3	-3	0	1.8
55. Cc1nc2ccc(Cl)cn2c1C(=O)NN
  -2.1	0	-0.3	3.0	-15	-9	-5	1.7
56. C=CCOC(=O)C1=C(C)NC(SCC(=O)Nc2ccccc2)=C(C#N)C1c1ccco1 (stereo unspecified)
  -0.5	3	0.7	-161	-16	26	17	1.0
57. COCCCNc1nc2nonc2nc1N1CCC(C(C)N2CCOCC2)CC1 (stereo unspecified)
  -3.9	-5	-0.3	9.0	-7	-7	-8	-3.9
58. O=C(Cc1ccc(O)cc1)NC1CCCCCC1
  0.7	-5	0.4	-2.3	10	-12	-12	1.6
59. CCOC(=O)C1(CCc2ccccc2)CCN(Cc2ccc(C(=O)OC)cc2)CC1
  5.6	nt	0.0	2.1	27	13	9	-8.5
60. Cc1ccc(C2C3=C(CC(C)(C)CC3=O)Nc3n[nH]c(C)c32)cc1 (stereo unspecified)
  -2.4	-3	0.0	-31	-5	15	7	2.1

(further entries)
Under each structure: RanGTP-Imp inh	Beta apoptosis	Bfl-1 A1 inh	UCH37 DUB inh	Calb FLC	T cruzi inh	B2AR ag	LANA-H2B inh
61. COC(=O)c1c(NC(=O)C2SC(=NC3CCCCC3)C(C(N)=O)=C2N)sc2c1CCCC2 (stereo unspecified)
  1.0	1	0.7	-15	24	-14	-5	2.7
62. O=C(CCC(=O)OCc1ccc(Br)cc1)Nc1ccccc1
  2.1	-6	-0.7	-0.5	-11	4	8	-3.2
63. NC(=O)C(=O)N/N=C/c1cccc(C(F)(F)F)c1
  ?	-6	-0.2	nt	13	6	8	0.0
64. C=CCc1c(C)nc2c(-c3ccccc3)cnn2c1N1CCOCC1
  5.4	-9	0.3	-28	1	15	-17	1.3
